ANO1 activ = TMEM16A chloride channel activators or potentiators, primary screen, cell-based, HTS. HEK293 TMEM16A/YFP-H148Q/I152L, iodide quench fluorescence; active compounds read low. Anoctamin-1 (Mus musculus), Q8BHY3. B-score at 10 µM. 0.3% of 340,000 active;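 active = fluorescence-ratio B-score plate-corrected deviation score at least 3 library SD below zero, with starting fluorescence score within 5 deviations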;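 also: channel opened by trigger with iodide after compound preincubation; score built on the fluorescence ratio of max minus min over baseline; more negative score means more quench and so TMEM16A activation or potentiation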
KCNK3 inh = human KCNK3 channel inhibitors, primary screen, CHO cells, FluxOR thallium flux, B-score; Potassium channel subfamily K member 3 (Homo sapiens), O14649; FluxOR fluorescence; active compounds read low; B-score at 10 µM; 0.84% of 340,000 active; AID 602410, 2012;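 active = B-score under library mean minus 4 SD, starting fluorescence ratio at most library mean plus 5 SD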;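 also: more negative B-score means stronger inhibition of thallium flux through KCNK3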
Target sequence (O14649 whole entry, looked up): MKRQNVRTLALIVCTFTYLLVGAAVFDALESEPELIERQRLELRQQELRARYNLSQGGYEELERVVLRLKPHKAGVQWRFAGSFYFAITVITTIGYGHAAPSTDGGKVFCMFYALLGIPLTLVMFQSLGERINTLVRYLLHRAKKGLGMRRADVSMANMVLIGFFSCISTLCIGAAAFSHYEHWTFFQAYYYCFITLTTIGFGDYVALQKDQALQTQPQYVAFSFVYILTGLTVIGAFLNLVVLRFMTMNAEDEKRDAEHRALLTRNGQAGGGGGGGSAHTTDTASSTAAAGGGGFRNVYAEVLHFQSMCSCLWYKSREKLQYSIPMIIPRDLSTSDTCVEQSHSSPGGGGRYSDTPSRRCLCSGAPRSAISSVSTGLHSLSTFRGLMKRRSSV
KCNK9 block = KCNK9 potassium channel inhibitors, primary screen, HEK293 cells, thallium flux | Potassium channel subfamily K member 9 (Homo sapiens), Q9NPC2 | FluxOR thallium flux fluorescence; active compounds read low | B-score at 10 µM | 1.2% of 310,000 active | AID 488922, 2010;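 active = ratio B-score over 3 SD below the library mean, with starting fluorescence within 5 SD of its mean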;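 also: negative B-score means less thallium flux so channel inhibition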
TMEM16A inh = TMEM16A chloride channel inhibitors, primary screen, cell-based, HTS | AID 588511, 2011 | Anoctamin-1 (Mus musculus), Q8BHY3 | 1.2% of 310,000 active | HEK293 TMEM16A/YFP iodide influx fluorescence, ionomycin | normalized B-score (activity score, 25-100; higher = stronger inhibition) at 10 µM;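 active = ratio plate-corrected score three or more library SD toward inhibition, starting fluorescence score within five deviations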;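 also: score derived from kinetic fluorescence span divided by baseline fluorescence per well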
MrgX1 agonist = agonists of human MrgX1 receptor, primary screen, HEK293 cells, Fluo-4 calcium flux. Mas-related G-protein coupled receptor member X1 (Homo sapiens), Q96LB2. Fluo-4 calcium fluorescence, agonist mode; active compounds read high. B-score at 10 µM. 0.44% of 310,000 active. AID 588627, 2011;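 active = calcium response B-score plate-corrected fluorescence ratio at least 3 library SD, with starting fluorescence B-score inside 5 SD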
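Material: MrgX1-expressing HEK293 cells / Dosing: compound as first of three additions / Incubation: overnight seeding, then 1 h dark dye loading / Signal: Fluo-4 NW calcium fluorescence / Evaluation: B-scored fluorescence response ratio / Benchmarks: positive and negative control wells on each plate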
MrgX1 PAM = positive allosteric modulators of MrgX1, primary screen, HEK293 cells, Fluo-4 calcium flux | B-score at 10 µM | FDSS; active compounds read high | Mas-related G-protein coupled receptor member X1 (Homo sapiens), Q96LB2 | 0.63% of 310,000 active;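 active = plate-corrected calcium response at least 3 library SD above typical, normal starting fluorescence, not activating the receptor alone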;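 also: compound read alongside a low EC10 to EC30 dose of BAM8-22 agonist; peak minus trough fluorescence over baseline measured at the second addition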
RGS4 act = RGS4 potentiators or activators, primary screen, cell-based, HEK293 M3R inducible RGS4, calcium flux | 0.92% of 310,000 active | B-score at 10 µM | carbachol calcium flux Fluo4; active compounds read low;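 active = B-score of the integrated calcium signal more than 4 SD below the library mean, with starting fluorescence not abnormally high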;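 also: negative B-score means reduced calcium response which marks RGS4 activation or potentiation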
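test system = HEK293 cells with stable M3R and inducible RGS4 | schedule = recording 10 s baseline at 1 Hz, 100 s post-agonist | technique = Fluo4-AM (2 µM) calcium-flux fluorescence, kinetic read | measure = Agonist-evoked peak-minus-minimum fluorescence over baseline, integrated ratio, B score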
RGS4 block = RGS4 inhibitors, primary screen, cell-based, HEK293 M3R inducible RGS4, calcium flux | Regulator of G-protein signaling 4 (Homo sapiens), P49798 | Fluo-4 calcium flux; active compounds read high; triggered by carbachol at its EC20 | B-score at 10 µM | 0.45% of 310,000 active | AID 463165, 2010;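 active = B-score, a plate-corrected calcium signal, over three deviations above library mean, with baseline fluorescence within five deviations of library mean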;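 also: RGS4 expression induced by doxycycline in cells with stable M3 receptor; B-score is computed from the integrated fluorescence ratio over baseline after carbachol; higher B-score means a larger calcium signal and so more RGS4 inhibition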
Target sequence (P49798 whole entry, looked up): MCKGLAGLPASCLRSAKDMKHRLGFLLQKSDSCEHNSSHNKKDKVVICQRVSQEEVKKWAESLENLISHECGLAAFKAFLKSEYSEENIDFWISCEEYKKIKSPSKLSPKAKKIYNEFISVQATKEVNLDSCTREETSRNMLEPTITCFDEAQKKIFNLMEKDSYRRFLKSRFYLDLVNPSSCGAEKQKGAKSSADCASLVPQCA
Active calls of the source: *; i = inactive; nt = no result given. Some of the compounds tested; rates above refer to the full screens.

(1) CCCCS/C(=C(/C#N)C(N)=O)c1cc2c([nH]1)CCCC2
(2) O=S(=O)(/N=C(/Sc1ccccc1)c1ccccc1)c1ccccc1
(3) COC(=O)c1c(/N=C/N(C)C)sc2c1CCN(c1ncc(C(F)(F)F)cc1Cl)C2
(4) Cc1cccn2c(=O)c(C(=O)NC3CC(C)CC(C)(C)C3)c(O)nc12 (centres undefined)
(5) O=C(Nc1nnc(-c2ccc3c(c2)CCCC3)o1)C1COc2ccccc2O1 (centres undefined)
(6) O=C(Nc1ccc(Cl)cc1)Nc1ccc(Oc2cccnc2)nc1
(7) Fc1ccc(C2CCNCC2COc2ccc3c(c2)OCO3)cc1 (centres undefined)
(8) N#CCSc1n[nH]c2nc3c(c(=O)n12)C1(CCCCC1)Cc1ccccc1-3
(9) COC(=O)/C=C/c1cnc[nH]1
(10) O=C(NC(=S)NC1CCCc2ccccc21)c1ccco1 (centres undefined)

| screen / no. | 1 | 2 | 3 | 4 | 5 | 6 | 7 | 8 | 9 | 10 |
| --- | --- | --- | --- | --- | --- | --- | --- | --- | --- | --- |
| MrgX1 PAM | i | i | i | i | i | i | i | i | i | i |
| RGS4 act | -8.2* | i | i | -7.2* | i | i | -8.8* | i | i | i |
| RGS4 block | i | 13* | i | i | i | i | i | i | i | i |
| TMEM16A inh | i | i | i | i | 25* | i | i | i | i | i |
| ANO1 activ | i | i | i | i | i | i | i | i | i | i |
| KCNK3 inh | i | i | i | i | i | i | i | i | i | i |
| KCNK9 block | i | i | i | i | i | i | i | i | i | i |
| MrgX1 agonist | i | i | i | i | i | i | i | i | i | i |

In another format: entries from further up.
Results follow in this order: MrgX1 PAM	RGS4 act	RGS4 block	TMEM16A inh	ANO1 activ	KCNK3 inh	KCNK9 block	MrgX1 agonist
#6 O=C(Nc1ccc(Cl)cc1)Nc1ccc(Oc2cccnc2)nc1
→ i	i	i	i	i	i	i	i
#3 COC(=O)c1c(/N=C/N(C)C)sc2c1CCN(c1ncc(C(F)(F)F)cc1Cl)C2
→ i	i	i	i	i	i	i	i
#2 O=S(=O)(/N=C(/Sc1ccccc1)c1ccccc1)c1ccccc1
→ i	i	13*	i	i	i	i	i
#5 O=C(Nc1nnc(-c2ccc3c(c2)CCCC3)o1)C1COc2ccccc2O1 (centres undefined)
→ i	i	i	25*	i	i	i	i

Returning to the listing, repeating the 2 entries before the break.
(9) COC(=O)/C=C/c1cnc[nH]1
(10) O=C(NC(=S)NC1CCCc2ccccc21)c1ccco1 (centres undefined)
(11) O=C(Cc1ccccc1)Nc1ccc(N2CCOCC2)cc1N1CCOCC1
(12) CC(C)(C)C1CCC2(CC1)C(C#N)=C(SCC(=O)Nc1ccccc1)NC(=O)C2C#N (centres undefined)
(13) Cc1ccccc1Cn1c2ccccc2c2cnn(CC(=O)NCc3ccccn3)c(=O)c21
(14) CCOc1cccc2sc(N(CCCN(C)C)C(=O)c3ccc(S(=O)(=O)N(CC)Cc4ccccc4)cc3)nc12
(15) CN(C(=S)NC(=O)c1ccccc1Br)C1CCCCC1
(16) Cc1ccc(NC(=S)NCc2ccccc2)cc1C
(17) Cc1n[nH]c(C)c1N1C(=O)c2cccc3c(N4CCCCCC4)ccc(c23)C1=O
(18) COC(=O)C1=C(C)NC(C)=C(C(=O)OCC(C)C)C1c1ccccc1[N+](=O)[O-] (centres undefined)
(19) CCc1ccccc1OCCOc1ccc(C)cc1OC
(20) O=C(NC(=S)N1CCN(c2c(Cl)cccc2[N+](=O)[O-])CC1)c1cccs1

| screen / no. | 9 | 10 | 11 | 12 | 13 | 14 | 15 | 16 | 17 | 18 | 19 | 20 |
| --- | --- | --- | --- | --- | --- | --- | --- | --- | --- | --- | --- | --- |
| MrgX1 PAM | i | i | i | i | i | i | i | i | i | i | i | i |
| RGS4 act | i | i | i | i | i | -7.7* | i | i | i | i | i | i |
| RGS4 block | i | i | i | i | i | i | i | i | i | i | i | i |
| TMEM16A inh | i | i | i | 100* | i | i | i | i | i | i | i | i |
| ANO1 activ | i | i | i | i | i | i | i | i | i | i | i | i |
| KCNK3 inh | i | i | i | i | i | i | i | i | i | i | i | i |
| KCNK9 block | i | i | i | i | i | i | i | i | i | i | i | i |
| MrgX1 agonist | i | i | i | i | i | i | i | i | i | 31* | i | i |

(21) O=c1c2cc(Br)ccc2nc(-c2cccc(Cl)c2)n1O
(22) CCN(CC)c1ccc(NC(=O)Cn2cc3c(n2)CCC(C)C3)c(C)c1 (centres undefined)
(23) COc1ccc(-c2cc(=Nc3ccc(C)cc3)c3ccccc3o2)cc1
(24) COc1cccc(C(=O)Nc2ccc3ccccc3c2)c1
(25) Nc1ncnc2c1ncn2[C@@H]1O[C@H](COP(=O)(O)O)[C@@H](O)[C@H]1O
(26) N#CCSc1n[nH]c2nc3c(c(=O)n12)C1(CCCC1)Cc1ccccc1-3
(27) COc1ccc(NC(=O)CCCC2CCCCC2)c(OC)c1
(28) O=C(CSc1nnc(-c2ccccc2)c(-c2ccccc2)n1)N1CCc2ccccc21
(29) COc1ccc(CNC(=O)CN(Cc2ccccc2)S(=O)(=O)c2ccc(Cl)cc2)cc1
(30) Cc1ccc(C)c(OCC(=O)Nc2ccccc2N2CCCC2)c1

| screen / no. | 21 | 22 | 23 | 24 | 25 | 26 | 27 | 28 | 29 | 30 |
| --- | --- | --- | --- | --- | --- | --- | --- | --- | --- | --- |
| MrgX1 PAM | i | i | i | i | i | i | i | i | i | i |
| RGS4 act | i | i | i | i | i | i | i | i | i | i |
| RGS4 block | i | i | i | i | i | i | i | i | i | i |
| TMEM16A inh | i | i | i | i | i | i | i | i | i | i |
| ANO1 activ | i | i | i | i | i | i | i | i | i | i |
| KCNK3 inh | i | i | i | i | i | i | i | i | i | -10* |
| KCNK9 block | i | i | i | i | i | i | i | i | i | i |
| MrgX1 agonist | 68* | i | i | i | i | i | i | i | i | i |

(31) Cc1nc2ccccc2c(=O)n1NC(=O)Cc1ccc(Br)cc1
(32) Oc1ccc2ccc3cccc[n+]3c2c1
(33) Cc1ccc(-c2cc(C(=O)N3N=C(C(F)F)CC3(O)C(F)F)c3ccccc3n2)cc1C (centres undefined)
(34) CCOC(=O)C1=C(C)NC(C)=C(C(=O)OC)C1c1cccc(Cl)c1Cl (centres undefined)
(35) COC(=O)c1ccccc1NC(=S)NC(NC(=O)c1ccco1)C(Cl)(Cl)Cl (centres undefined)
(36) CC(=O)C1=C(C)NC(SCC(=O)c2ccccc2)=C(C#N)C1c1ccco1 (centres undefined)

| screen / no. | 31 | 32 | 33 | 34 | 35 | 36 |
| --- | --- | --- | --- | --- | --- | --- |
| MrgX1 PAM | i | i | i | i | i | i |
| RGS4 act | i | i | i | i | i | i |
| RGS4 block | i | i | i | i | i | i |
| TMEM16A inh | i | i | i | i | i | i |
| ANO1 activ | i | i | i | i | i | nt |
| KCNK3 inh | i | i | i | i | i | nt |
| KCNK9 block | i | i | i | i | i | i |
| MrgX1 agonist | i | i | i | i | i | i |

Arranged by count of non-hydrogen atoms (low to high): 3 of the compounds above.
(34) CCOC(=O)C1=C(C)NC(C)=C(C(=O)OC)C1c1cccc(Cl)c1Cl (centres undefined)
(11) O=C(Cc1ccccc1)Nc1ccc(N2CCOCC2)cc1N1CCOCC1
(29) COc1ccc(CNC(=O)CN(Cc2ccccc2)S(=O)(=O)c2ccc(Cl)cc2)cc1

| screen / no. | 34 | 11 | 29 |
| --- | --- | --- | --- |
| MrgX1 PAM | i | i | i |
| RGS4 act | i | i | i |
| RGS4 block | i | i | i |
| TMEM16A inh | i | i | i |
| ANO1 activ | i | i | i |
| KCNK3 inh | i | i | i |
| KCNK9 block | i | i | i |
| MrgX1 agonist | i | i | i |

Bioassay records (PubChem BioAssay)
